High-throughput results as filed in PubChem.
INS promoter inh: inhibitors of insulin promoter-driven GFP, primary screen, imaging, TRM-6 cells (human fetal islet line), eGFP reporter, cell count; hit rate 0.9% among 130,000; reporter expression induced with tamoxifen; AID 1273, 2008; inhibition, % at 2 µM;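 active means inhibition above the mean plus 3 SD, with well images judged a real hit on visual review, cut at about 60% in these data, passing the limit was not always enough; inconclusive means inhibition over the cutoff but images rejected on review; inactive means inhibition not above the cutoff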
PKD1 inh: inhibitors of human PKD1 kinase, biochemical, fluorescence polarization; hit rate 0.056% among 200,000; inhibition, %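 (about 10 µM by stock and volumes)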; Serine/threonine-protein kinase D1 (Homo sapiens), Q15139; AID 797, 2007; PKD1 kinase fluorescence polarization assay;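 active means inhibition of 50% or more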;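 further: controls were vehicle for no effect and a reference inhibitor for full effect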
RGS16-Gao HTS: modulators of RGS16 binding to Galphao, primary screen, biochemical, human proteins, multiplexed bead flow cytometry; hit rate 0.38% among 220,000; binding response (% of control), % at 10 µM; bead-based flow cytometry RGS16-Galphao binding, fluorescence; actives lie on both sides; Regulator of G-protein signaling 16 (Homo sapiens) + Guanine nucleotide-binding protein …; AID 1441, 2008;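 active means below 25% or above 175%, edge rows of some plates excepted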;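 further: Galphao activated by GDP with aluminum fluoride before binding; 100% = wells without compound and 0% = beads without RGS; some results beyond the cut were filed as inactive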
Target sequence (O15492 whole entry, looked up): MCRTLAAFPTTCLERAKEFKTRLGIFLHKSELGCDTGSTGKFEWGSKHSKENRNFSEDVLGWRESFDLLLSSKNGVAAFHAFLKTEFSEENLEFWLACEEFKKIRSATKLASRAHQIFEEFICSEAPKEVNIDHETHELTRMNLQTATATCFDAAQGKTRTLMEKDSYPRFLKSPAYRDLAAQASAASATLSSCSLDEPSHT
Target sequence (P09471 whole entry, looked up): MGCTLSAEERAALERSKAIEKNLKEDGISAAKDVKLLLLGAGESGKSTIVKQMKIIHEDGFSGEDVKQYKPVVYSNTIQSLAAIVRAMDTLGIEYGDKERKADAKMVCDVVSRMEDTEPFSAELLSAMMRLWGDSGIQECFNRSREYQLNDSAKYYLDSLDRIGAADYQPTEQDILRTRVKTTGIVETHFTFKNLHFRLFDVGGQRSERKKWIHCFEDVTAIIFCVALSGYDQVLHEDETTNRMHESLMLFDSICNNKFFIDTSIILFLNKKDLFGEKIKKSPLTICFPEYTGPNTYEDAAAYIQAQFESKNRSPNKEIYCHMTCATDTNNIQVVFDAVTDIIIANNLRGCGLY
HSV augment: enhancers of HSV replication in host cells, fold increase, host cell viability | HSV replication augmentation in cells | hit rate 0.005% among 220,000 | maximum fold increase;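 active means peak rise of 1.5-fold or more in the series; inconclusive means self-fluorescent or not available for retest; tested in PC3 cells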;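 further: first round at 10 µM; read as green reporter fluorescence; hits show the peak of a series up to 25 µM; 1 = signal of infected wells without compound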
GALR2 agonist: GALR2 receptor agonists, primary screen, cell-based; AID 803, 2007; activation, %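 (tested at 5 µM)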; Galanin receptor type 2 (Homo sapiens), O43603; hit rate 0.48% among 140,000; GALR2-expressing cells, agonist activation read-out;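 active means above mean plus 3 SD of all compounds, about 5% in these data, not always enough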;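 further: 0% = vehicle buffer wells and 100% = reference agonist at full effect; tested in CHO reporter cells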
Target sequence (O43603 whole entry, looked up): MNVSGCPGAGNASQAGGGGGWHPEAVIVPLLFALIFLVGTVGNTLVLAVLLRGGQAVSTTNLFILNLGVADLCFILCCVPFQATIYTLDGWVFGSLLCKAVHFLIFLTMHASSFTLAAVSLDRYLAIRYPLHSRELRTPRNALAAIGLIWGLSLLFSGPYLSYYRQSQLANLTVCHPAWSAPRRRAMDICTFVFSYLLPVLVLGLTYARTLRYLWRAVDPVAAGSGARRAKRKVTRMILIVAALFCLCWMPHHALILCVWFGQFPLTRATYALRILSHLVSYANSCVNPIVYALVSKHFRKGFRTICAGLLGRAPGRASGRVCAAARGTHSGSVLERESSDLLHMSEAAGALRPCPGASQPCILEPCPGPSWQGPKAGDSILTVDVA
INS promoter inh cell count: second read-out of INS promoter inh, no call of its own (marks repeat the call); normalized cell count, %; measured here: cell count, toxicity; reference of the scale not given here;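 cells exposed to compound for 48 h; stained nuclei by imaging scaled within each plate; lower means fewer cells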
HSV augment primary fold: recorded beside HSV augment, whose call it bears; fold increase; compound at 10 µM; measured here: primary screen fold increase 10 uM; tested in PC3 cells;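 GFP signal in the first replicate; 1 = infected wells without compound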
* = called active by the depositor; i = inactive; ? = inconclusive; . = not tested or not shown.

No.	compound	INS promoter inh	INS promoter inh cell count	PKD1 inh	RGS16-Gao HTS	HSV augment	HSV augment primary fold	GALR2 agonist
1	CCS(=O)(=O)N1CCC(C(=O)NCCc2ccc(OC)c(OC)c2)CC1	.	.	11	100	i	0.85	-3.1
2	N#Cc1ccc(N2Cc3ccccc3C2=NC(=O)c2cccnc2Cl)cc1	23	138	0	110	i	0.98	1.2
3	C=CCSc1nc2c(c(=O)n(C)c(=O)n2C)n1CC	50	110	-1	104	i	0.94	-1.7
4	Cc1c(Cl)cccc1S(=O)(=O)N1CCC(C(=O)NNC(=O)C2CC2)CC1	.	.	-12	103	i	0.99	.
5	Cc1ccc(C(=O)NC(C)C(c2cccs2)N2CCCC2)s1 (centres undefined)	.	.	-2	95	i	1.1	.
6	CC1(C)C(=O)Nc2ccccc2N1C(=O)CSc1ncccn1	.	.	-7	97	i	1.1	.
7	CCCc1nc2n[nH]c(N)c2c2c1CCC2	.	.	-9	95	i	1	0.3
8	CC1CCCCC1NC(=O)COC(=O)c1ccccn1 (centres undefined)	-51	42	-5	101	i	1.1	-2.2
9	O=C(Cn1cnc2c(nnn2Cc2ccccc2F)c1=O)N1CCN(c2ccccc2)CC1	71	102	1	108	i	0.94	-2.2
10	Cc1ccc(OCCNC(=O)C2CC(=O)N(c3ccc(C)cc3)C2)cc1 (centres undefined)	43	129	-3	99	i	0.8	-1.2
11	COC(=O)Cc1c(O)ccn(Cc2ccc(Cl)c(Cl)c2)c1=O	.	.	-5	103	i	0.96	.
12	CC(=O)NCCc1nc2ccccc2[nH]1	.	.	8	105	i	0.88	-1.7
13	CCCCCC(=O)Nc1ccc2oc(-c3ccncc3)nc2c1	-100	100	-6	103	i	0.94	-1.7
14	COCC(=O)Nc1c(C(=O)Nc2ccccc2OC)oc2ccccc12	40	131	-1	102	i	0.99	-1.8
15	COc1ccc(CNc2nc(NCc3ccc(OC)cc3)n(S(C)(=O)=O)n2)cc1	-143	107	-1	103	i	0.99	-1.5
16	Cc1[nH]n(C)c(=O)c1N=Nc1ccc(S(C)(=O)=O)cc1	.	.	.	100	i	1	.

Of the compounds above, 3 contain an aryl methoxy group.
No.	compound	INS promoter inh	INS promoter inh cell count	PKD1 inh	RGS16-Gao HTS	HSV augment	HSV augment primary fold	GALR2 agonist
1	CCS(=O)(=O)N1CCC(C(=O)NCCc2ccc(OC)c(OC)c2)CC1	.	.	11	100	i	0.85	-3.1
14	COCC(=O)Nc1c(C(=O)Nc2ccccc2OC)oc2ccccc12	40	131	-1	102	i	0.99	-1.8
15	COc1ccc(CNc2nc(NCc3ccc(OC)cc3)n(S(C)(=O)=O)n2)cc1	-143	107	-1	103	i	0.99	-1.5

(listing goes on)
No.	compound	INS promoter inh	INS promoter inh cell count	PKD1 inh	RGS16-Gao HTS	HSV augment	HSV augment primary fold	GALR2 agonist
17	CN(CCCCN1CCOCC1)Cc1nc(-c2ccc3c(c2)OCO3)no1	.	.	-2	111	i	0.96	.
18	CC1(C)CC(=O)C(C=Nc2ccccc2)=C(O)C1	.	.	-2	96	i	0.97	-1.3
19	CC1CCc2c(nc3ncnn3c2N2CC(C)OC(C)C2)C1 (centres undefined)	.	.	-2	93	i	0.99	-2.1
20	Cn1c(CCNC(=O)c2ccco2)nc2cc(NC(=O)C3CCCCC3)ccc21	-55	146	-6	96	i	1	-2.5
21	C=CCn1c(=O)c2ccccc2n2c(SCC(=O)/C(C#N)=C(\C)N)nnc12	.	.	4	99	i	0.9	-0.7
22	CCC(=O)Nc1ccc(NC(=O)c2ccco2)cc1	43	102	-10	102	i	0.71	-1.0
23	Cc1ccc(N=Nc2c(N)nn(-c3ccccc3)c2N)cc1	6	88	4	115	i	0.76	-1.6
24	CCC(=O)Nc1nc(-c2ccccc2)nc(SC)c1C(C)=O	-64	129	2	123	i	1	.
25	Cc1ccc(S(=O)(=O)NC(=O)N(C)C2CCCCC2)cc1	.	.	.	103	i	0.98	.
26	Cc1ccc(CSc2nnc(NC(=O)C3COc4ccccc4O3)s2)cc1 (centres undefined)	.	.	-11	103	.	.	-1.7
27	CCCc1nnc(NC(=O)c2cc3ccccc3oc2=O)s1	29	146	-2	98	i	0.96	-0.9
28	Cc1cnc(Sc2ncccc2[N+](=O)[O-])nc1	-3	93	-4	98	?	.	0.5
29	COc1ccc2[nH]c(=O)c(CN(C)C(=O)c3cccs3)cc2c1	.	.	.	100	i	0.99	.
30	COc1ccc2c(c1)C(SCC(=O)NCCc1ccccc1)CC(C)(C)O2 (centres undefined)	-48	106	-12	.	.	.	-0.9
31	CCSc1nnc(Nc2ccccc2)s1	.	.	-10	21*	i	0.93	-0.3
32	OCC1(Cc2ccccc2Cl)CCN(C/C=C/c2ccccc2)CC1	.	.	-1	100	i	0.96	.
33	CCOc1ccccc1CNc1ccc(N2CCOCC2)c(C(=O)O)c1	-42	96	1	104	i	1	-0.8
34	Nc1ccc(Cl)cc1C(=O)OCC(=O)NC1CCS(=O)(=O)C1 (centres undefined)	.	.	.	81	i	0.98	.
35	O=C(CC1(C(F)(F)F)OCCO1)Nc1ccc2c(c1)OCO2	.	.	0	106	i	0.83	-2.7
36	CS(=O)(=O)c1ccc2nc(NC(=O)CS(=O)(=O)Cc3ccccc3)sc2c1	8	117	0	101	i	1	.
37	Cc1ccc2nc(N/N=C/c3ccccc3C#N)nc(-c3ccccc3)c2c1	.	.	6	87	i	0.82	0.9
38	CCOC(=O)C1=C(C)NC2=C(C(=O)CCC2)C1c1ccc(O)c(OCC)c1 (centres undefined)	20	81	-3	124	i	0.81	-2.3
39	COc1ccc(/C=C2\SC(=N)N(c3ccc(F)cc3)C2=O)cc1OC	-7	70	6	123	i	0.92	.
40	Cc1ccc(-c2cnc(NCc3cc4c(cc3[N+](=O)[O-])OCO4)n2C)cc1C	-15	62	-4	101	i	1	.
41	O=S(=O)(c1ccc(S(=O)(=O)N2CCC3(CC2)OCCO3)cc1)N1CCCC1	.	.	.	102	i	1.1	.
42	O=C(O)CCCC(=O)N1CCCC1	25	142	5	96	i	0.92	.
43	Cc1cc2c(cc(C(=O)OC(C(=O)NCc3ccco3)C(C)C)n2C)o1 (centres undefined)	-9	105	-5	105	i	0.94	-1.3
44	CCSc1nc(C)cc(Oc2ccc(=O)n(C)n2)n1	.	.	18	92	i	0.88	0.3
45	COC(=O)c1sc2nc3c(cc2c1N)CCCC3	49	221	-3	108	i	0.87	.
46	CN(C)c1ccc(/C=N/NC(=O)c2cccc(C(=O)N/N=C/c3ccc(N(C)C)cc3)n2)cc1	19	72	1	94	i	0.86	.
47	Cc1ccc(NC(=O)C(=O)NCC2CCCO2)cc1C (centres undefined)	.	.	0	101	i	1	.
48	CCn1c(SCC(=O)Nc2cc(C)ccc2C)nc2c(c1=O)SC(C)C2 (centres undefined)	.	.	-7	105	i	0.98	-0.4
49	CC(=O)N1CCN(c2ccccc2NC(=O)COc2ccc(Cl)cc2Cl)CC1	-144	109	-9	104	i	1.1	-0.9
50	COC(=O)c1[nH]c2ccccc2c1NC(=O)CN1CCN(c2cccc(OC)c2)C(C)C1 (centres undefined)	9	134	-10	108	i	1	-2.0
51	Oc1ccccc1C1=Nc2ccccc2N=C(c2ccco2)C1	-13	66	-12	102	i	1.2	-0.1
52	C=CCn1c(SCCN2CCCC2)nc2c([nH]c3ccccc32)c1=O	8	85	2	70	.	.	.
53	Cc1ccc2c(CC(=O)OCc3cc(=O)n4c(n3)sc3ccccc34)coc2c1	-7	84	-15	92	.	.	-1.6
54	CN(C)CC(=O)c1c[nH]c2ccccc12	-29	160	4	98	i	0.95	0.1
55	O=C(N/N=C/c1cc(Cl)cc([N+](=O)[O-])c1O)NC12CC3CC(CC(C3)C1)C2	-31	105	-2	92	i	0.95	21*
56	COC(=O)c1nn(-c2ccc(OC)cc2)c(=O)cc1NN	.	.	-9	94	i	1	.
57	O=C(NC1=NCCS1)C1Cc2ccccc2CN1C(=O)c1ccccc1 (centres undefined)	0	101	-9	103	i	1	-1.4
58	CCOc1ccc(NC(=O)CCNS(=O)(=O)c2ccc3c(c2)CCC(=O)N3)cc1	-17	92	-7	112	i	0.94	-0.8
59	Cc1cc(NS(=O)(=O)c2ccc(NC(=S)NC(=O)c3ccc(Br)cc3)cc2)no1	-14	122	12	89	i	0.95	-0.5
60	CN1CCC(N(C)C(=O)c2cc(=O)c3ccccc3o2)CC1	45	97	6	110	i	0.99	.
61	Cc1ccc(NC(=S)NCc2ccc3c(c2)cc(C)n3C)c(C)c1	-33	113	-2	118	i	0.73	.
62	CCC(=O)Nc1ccc(NC(=O)CSc2nnc(-c3ccc(O)cc3)n2CC2CCCO2)cc1 (centres undefined)	-56	110	0	114	i	1.1	.
63	CCN(CC)C(=O)CSc1nc2cccnc2n1-c1ccccc1OC	.	.	-11	100	i	0.87	-1.4
64	O=C(c1ccco1)N1CCN(C(=S)Nc2cccc([N+](=O)[O-])c2)CC1	-26	125	-1	98	i	0.9	.
65	O=C(Nc1ccc2[nH]c(=S)sc2c1)c1ccccc1	-3	111	-2	103	i	0.88	-0.9
66	Cc1cccc(C2CC3(CC(C)(C)NC(=S)N3)Oc3cc(O)ccc32)c1 (centres undefined)	-67	120	-4	97	i	0.93	.
67	Cc1cc2c(cc1C)C(=O)NC(C)(C)C2	-23	31	-3	100	i	1	1.7
68	Cc1nc(N2CCCC2)c2ccsc2n1	34	48	-5	99	i	1	-1.6
69	CCc1nc(Sc2nc(C)cc(C)n2)c2oc3ccccc3c2n1	.	.	-16	109	i	0.71	0.0
70	COC(=O)c1nc2n(n1)C(c1cccc(Cl)c1)C1=C(CCCC1=O)N2 (centres undefined)	.	.	-3	102	i	0.75	-0.9
71	O=C(Nc1cccc(C(F)(F)F)c1)/C(=C/c1ccco1)NC(=O)c1cccs1	.	.	2	103	.	.	-1.7
72	COc1ccc(N2C(=O)C3C(C2=O)C(C(=O)c2ccc(Cl)cc2)N2CCCC32)cc1 (centres undefined)	.	.	.	99	i	1	.

The results go on.
No.	compound	INS promoter inh	INS promoter inh cell count	PKD1 inh	RGS16-Gao HTS	HSV augment	HSV augment primary fold	GALR2 agonist
73	COc1cc(NC(=O)Nc2ccccc2OC)c(OC)cc1NC(=O)CN1CCCCC1	32	102	-16	99	i	0.77	-0.2
74	Cn1cnnc1Sc1ccc(C(=O)OCC(=O)NC2CC2)cc1[N+](=O)[O-]	-43	59	-4	88	i	0.97	.
75	CCc1ccccc1NC(=O)CN(C)C(=O)Cn1ncc(Cl)c(Cl)c1=O	-223	5	12	102	i	0.73	-1.7
76	O=C(NCCOc1nc(N2CCCCC2)nc(N2CCCCC2)n1)Nc1ccccc1	.	.	4	106	i	0.8	.
77	O=C(CN1CCCCCC1)Nc1ccccc1F	-37	77	-4	98	i	0.96	-0.6
78	CCCC(=O)Nc1c(C)n[nH]c1C	-16	122	7	100	i	0.74	-2.4
79	Cc1ccc(-c2nn(-c3ccccc3)cc2/C=N/NS(=O)(=O)c2ccccc2)cc1	-4	137	-11	99	i	0.91	0.2
80	Cc1c(NC(=O)c2cc(-n3cnnc3)ccc2Cl)cccc1-c1nc2ccccc2o1	-10	83	-5	103	i	0.93	-4.4

Hits appear at their usual frequency, and some 1.3% of all compounds hit somewhere here.
